High-throughput results: PubChem BioAssay, National Center for Advancing Translational Sciences (NCATS)
HTT aggregate – reduces HttQ103-GFP aggregates in PC12 cells. Potency, µM (series often up to 46.1 µM), inactives show top-dose activity change, negative = inhibition, actives largely listed as inhibitors. actives 1.1% (n = 220,000). PC12 HttQ103-GFP aggregates, Acumen cytometry, 40 h; also: % is scaled to controls: 0 for no effect and ±100 for the full control effect; nearly all actives have a fitted effect of over 60% in size
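Using laser scanning cytometry, GFP-positive aggregates were counted after lysis of PC12 cells induced with 100 nM tebufenozide to express HTT exon 1 Q103–GFP. Compounds were tested in titration.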
HTT cytoprotect – cytoprotection in Huntington HTT-Q103 PC12 cell model; Potency, µM (series often up to 56.4 µM), without a hit: cytoprotection (ATP increase), hits mostly activators; PC12 HTT-Q103 induced, cytoprotection, ATP luminescence, 40 h; actives 0.14% (n = 230,000);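 also: % of control where 0% means no effect; nearly all actives have a fitted effect of over 45% in size; toxic huntingtin expression switched on by the ecdysone agonist tebufenozide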
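Readout: ATPlite luminescence (ATP level). Model: stable PC12, inducible Htt exon1 Q103-GFP. Inducer: tebufenozide, 100 nM final. Compounds: dose series. No G418 in medium.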
* hit, by the source's call; . = not tested or not shown; & = joins results of further samples. Calls follow the shape of the dose curve; as a rule, active = well fitted curve in the direction sought with a large enough effect; inconclusive = small, poorly fitted or top-dose-only effect, or another doubt; inactive = no such curve, though single readings can be large; an effect the other way counts as inactive or inconclusive. Potency is read from the fitted curve at half-maximal effect.

SMILES | HTT aggregate | HTT cytoprotect
N[C@H](CO)C(=O)O | 17% | -30%&-24%
O=C(O)CC(O)C(=O)O (centres undefined) | -2%&5% | 0%&-16%
OCC(O)CO | 2% | 12%&-10%&-66%
CC(=O)Nc1ccc(Oc2ncccn2)cc1 | -2% | 2%
CCCCN1C[C@H](O)[C@@H](O)[C@H](O)[C@H]1CO | 10% | .

Arranged by value in HTT aggregate (falling): three of the compounds above.
structure,HTT aggregate
N[C@H](CO)C(=O)O,17%
OCC(O)CO,2%
CC(=O)Nc1ccc(Oc2ncccn2)cc1,-2%

Complete entries, quoted from the list:
Shown for N[C@H](CO)C(=O)O = HTT aggregate: 17%; HTT cytoprotect: -30%&-24%
Shown for CC(=O)Nc1ccc(Oc2ncccn2)cc1 = HTT aggregate: -2%; HTT cytoprotect: 2%

In the list so far, two contain a COOH group.
SMILES | HTT aggregate | HTT cytoprotect
N[C@H](CO)C(=O)O | 17% | -30%&-24%
O=C(O)CC(O)C(=O)O (centres undefined) | -2%&5% | 0%&-16%

An excerpt, and most or all hits are left out here.
